PABP polyA inh = PABP poly(A) RNA binding inhibitors, primary screen, biochemical, fluorescence polarization, uHTS. inhibition, % at 35 µM. actives 1% (n = 290,000);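 active = 50% or more with normal probe brightness, or confirmed in later tests; about a fifth of its hits are not listed in these tables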;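 note: calls also rest on retests at 20 µM and on dose response follow-up; controls were probe without protein and protein plus probe with vehicle; some compounds called inactive have numbers as strong as hits; many hits fall short of the cut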
Target sequence (P11940 whole entry, looked up): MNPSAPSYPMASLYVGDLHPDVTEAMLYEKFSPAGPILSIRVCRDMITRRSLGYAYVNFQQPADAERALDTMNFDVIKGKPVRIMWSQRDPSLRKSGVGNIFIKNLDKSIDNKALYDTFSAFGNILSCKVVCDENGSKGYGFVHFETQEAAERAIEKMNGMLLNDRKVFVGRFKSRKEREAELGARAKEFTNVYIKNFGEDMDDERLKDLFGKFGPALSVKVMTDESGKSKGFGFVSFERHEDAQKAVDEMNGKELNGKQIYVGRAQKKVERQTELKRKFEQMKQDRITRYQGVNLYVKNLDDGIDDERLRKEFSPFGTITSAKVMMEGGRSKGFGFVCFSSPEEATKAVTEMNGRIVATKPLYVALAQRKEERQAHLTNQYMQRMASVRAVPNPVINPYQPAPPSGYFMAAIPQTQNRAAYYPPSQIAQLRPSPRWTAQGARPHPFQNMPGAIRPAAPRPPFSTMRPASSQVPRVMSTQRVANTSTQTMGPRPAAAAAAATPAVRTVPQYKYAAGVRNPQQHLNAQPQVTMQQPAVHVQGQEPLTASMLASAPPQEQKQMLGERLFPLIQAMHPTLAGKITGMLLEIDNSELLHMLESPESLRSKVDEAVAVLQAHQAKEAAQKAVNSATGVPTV
Env fusion inh = inhibitors of HIV-1 Env-driven cell-cell fusion, primary screen, HeLa-JRFL effector, CEM21 target cells, luciferase; AID 651610, 2012; inhibition, % at 12.3 µM; actives 1.1% (n = 360,000);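 active = mean replicate inhibition score of at least 50 and every replicate individually at or above 50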;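 note: 0% = plate neutral controls and 100% = maraviroc near 300 nM; one replicate is shown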
eIF4H FP inh = human eIF4H binding inhibitors, primary screen, translation initiation inhibitor project, biochemical, uHTS, fluorescence polarization | Eukaryotic translation initiation factor 4H (Homo sapiens), Q15056 | eIF4H fluorescence polarization binding assay | inhibition, % at 35 µM | actives 0.94% (n = 290,000) | AID 2012, 2009;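 active = 50% or more with normal probe brightness, or confirmed in later tests; about a fifth of its hits are not listed in these tables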;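 note: calls also rest on retests at 20 µM and on dose response follow-up; 0% = protein and probe with vehicle and 100% = probe without protein; strong numbers were not always called active; many hits fall short of the cut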
CSC inhib = cancer stem cell viability inhibitors, primary screen, luminescence; cancer stem cell-like cells viability; actives 1.1% (n = 300,000); inhibition, % at 7.5 µM; AID 2717, 2010;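 active = mean at 75% or more and at least half the replicates too; tested in HMLE shEcad cells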;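 note: 0% = median of negative and 100% = median of positive control wells; the first replicate is given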
Rce1 inhib = yeast Rce1p protease inhibitors, primary screen, biochemical, fluorescence, cell-free homogeneous | CAAX prenyl protease 2 (Saccharomyces cerevisiae (strain ATCC 204508 / S288c)), Q03530 | yeast membranes, quenched prenylated peptide cleavage fluorescence | calls only | actives 0.27% (n = 290,000);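 active = fall in fluorescence gain of 50% or more versus controls, with final raw signal at or below 3038400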;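 note: plate controls were neutral control wells for no effect and wells lacking membranes for full effect; tested at 10 µM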
Yeast UUG start = modulators of yeast start codon fidelity, primary screen, whole organism, S. cerevisiae, single point, plate reader | S. cerevisiae UUG-firefly luciferase reporter, luminescence/redox ratio | activity score, % at 18.7 µM | actives 0.13% (n = 350,000);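 active = replicate mean at a twofold rise or more, about +100% in these data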;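 note: firefly luciferase made from a UUG start codon reports start codon fidelity; reporter light over untreated wells divided by growth signal over untreated wells; some hits fall short of that in this replicate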
MT1-MMP act inh = blockers of MT1-MMP proenzyme processing, primary screen, HT1080 RFP-PRO-GFP cells, GFP/RFP fluorescence; Matrix metalloproteinase-14 (Homo sapiens), P50281; GFP/RFP ratio fluorescence, overnight; percent of plate control window, DMSO zero; GFP/RFP ratio change, % at 20 µM; actives 0.061% (n = 360,000);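 active = GFP/RFP ratio change of at least 30% with cell ATP level not reduced by more than half and red fluorescence within 50% of control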; note: strong numbers were not always called active
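system = RFP-PRO-GFP reporter HT1080 cells | dosing = 20 µM single dose, 1% DMSO | timing = overnight cell settling, then overnight compound exposure, 37 °C, 5% CO2 | read-out basis = GFP/RFP fluorescence ratio | controls = DMSO and RFP-L50D-GFP cell wells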
MT1-MMP act inh RFP = also measured in MT1-MMP act inh; calls as there; RFP signal change, %; measured here: RFP expression control read;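 0 = vehicle wells; hits needed this value within 50% of zero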
Starred values were filed as active, the others as inactive; i = inactive; . = not tested or not shown. Not all compounds are listed. The share of hits here may be higher or lower than overall.

SMILES | PABP polyA inh | Env fusion inh | eIF4H FP inh | CSC inhib | Rce1 inhib | Yeast UUG start | MT1-MMP act inh | MT1-MMP act inh RFP
O=C(/C(=C(\[O-])c1ccccc1)[n+]1ccc2ccccc2c1)c1ccc([N+](=O)[O-])cc1 | 8 | 0 | 0 | -5 | i | . | -6 | 3
COc1ccccc1C(=O)NC(=O)COC(=O)C1CCC1 | . | -9 | . | -6 | i | -43 | -2 | 1
Cc1c(C(=O)N2CCCC(C)C2)sc2ncnc(N3CCCCC3C)c12 (centres undefined) | 10 | 19 | 2 | 3 | i | -8 | 2 | 0
CCc1ccc(N2CCN(CCNC(=O)Nc3ccc(OC)cc3)CC2)cc1 | -5 | -14 | 3 | -10 | . | 4 | 3 | -6
CC1CCCN(CC(=O)Nc2cccc([N+](=O)[O-])c2)C1 (centres undefined) | -1 | 7 | -11 | -5 | i | -10 | -5 | -1
COc1cc(Cl)ccc1OC1(C)CCN(Cc2ccc(-c3ccccn3)cc2)C1 (centres undefined) | . | 4 | . | . | . | -14 | 0 | 2
O=C(CSc1ccc2c(c1)OCCO2)Nc1cccnc1 | -7 | -4 | -2 | 0 | i | . | 3 | -4
Cc1nn(C)c(C(=O)N/N=C/c2cccc3ccccc23)c1Cl | 1 | -85 | -9 | -6 | i | . | 4 | 0
C(=C\c1ccccc1)/CSc1nnc(-c2cccnc2)o1 | 2 | . | 0 | 2 | i | . | 3 | 0
COc1ccc(Cc2nc3ccc(C(=O)NC(C)c4cnn(C)c4)cc3o2)cc1 (centres undefined) | -4 | -1 | -14 | -11 | i | -19 | -1 | -3
Cc1cccc(-n2ncc3c(NCc4cccnc4)ncnc32)c1 | 8 | -25 | -8 | -4 | i | -36 | 1 | -12
CCc1nnc(NC(=O)CN2C(=O)c3ccccc3S2(=O)=O)s1 | 3 | -20 | -6 | -5 | i | -16 | 0 | 0
O=C1CC(Sc2nnc(-c3ccccc3)o2)C(=O)N1c1ccccc1 (centres undefined) | 10 | -48 | 3 | -6 | i | -18 | -4 | 5
O=C1NN(c2ccccc2)C(=O)C2C1C1C=CC2C12CC2 (centres undefined) | -2 | -10 | -4 | -3 | i | 1 | 0 | 0
COc1ccc(NC(=O)CC(C)(C)C)c([N+](=O)[O-])c1 | 1 | 20 | -20 | -15 | i | 11 | 2 | 2
CCC(C)NC(=O)Nc1ccc(C)cc1C (centres undefined) | 1 | 5 | -15 | -3 | i | . | 0 | 3
CC(OC(=O)/C=C/c1cccs1)C(=O)Nc1ccc(S(N)(=O)=O)cc1 (centres undefined) | 18 | 3 | -2 | -2 | i | . | 1 | 2
CCOCCCN1CC(C(=O)NCCc2ccccc2)CC1=O (centres undefined) | 8 | . | 3 | -7 | i | -13 | 8 | 2
CNC(=O)CSc1nc2nc(C)cc(C)n2n1 | 2 | . | -8 | -10 | i | -16 | -1 | 4
Cc1ccc(OCC(=O)OCc2nc3scc(-c4ccccc4)c3c(=O)[nH]2)cc1C | . | -185 | . | 2 | i | -15 | 4 | 0
Cc1ccc(C(=O)Nc2ccccc2-c2ccccc2)cc1S(=O)(=O)Nc1ccccc1 | . | -5 | . | . | . | -19 | 0 | -11
CC(C)C(=O)N1CCC2(CC1)Oc1ccc(Cl)cc1C(=O)C21CC(c2cccnc2)=NO1 (centres undefined) | 20 | -16 | 2 | 9 | i | -8 | 4 | -2
COC(=O)c1ccc(CNC(=O)c2cc3ccccc3oc2=O)cc1 | 3 | -1 | -4 | -5 | i | . | -2 | 0
O=C(O)CSc1nnc(-c2ccncc2)n1C1CCCCC1 | -1 | -22 | -3 | 33 | i | 0 | -3 | 3
C=CCn1cnc2c(nnn2-c2ccc(OC)c(OC)c2)c1=O | 10 | 12 | 8 | -4 | i | . | -3 | -5
CCOC(=O)C1=C(C)C(c2ccc(OC)cc2)NC(=O)N1 (centres undefined) | 4 | 2 | 2 | 9 | i | . | 1 | 0
CCOC(=O)C1CCN(Cc2cn[nH]c2-c2ccccc2)CC1 | 4 | -41 | 1 | 2 | i | -1 | -1 | 0
COc1ccc(NC(=O)c2cc(S(=O)(=O)Nc3ccc(OC)cc3)cs2)cc1 | -5 | 3 | -5 | 8 | i | 7 | 3 | -10
CCCOC(=O)Nc1ccc(S(=O)(=O)Nn2cnnc2)cc1 | 9 | -69 | -15 | -5 | i | -4 | 7 | 10
COC(=O)C1=C(CSc2nncn2C)NC(=O)NC1c1ccc(F)cc1 (centres undefined) | -5 | -66 | -1 | 2 | i | -10 | 1 | 1
CC1Cc2cc(/C(O)=C3/C(=O)C(=O)N(CCN4CCOCC4)C3c3ccc(C(C)C)cc3)ccc2O1 (centres undefined) | -8 | -4 | 2 | 1 | i | -24 | -4 | -2

Among those listed so far, these have sulfur:
SMILES | PABP polyA inh | Env fusion inh | eIF4H FP inh | CSC inhib | Rce1 inhib | Yeast UUG start | MT1-MMP act inh | MT1-MMP act inh RFP
Cc1c(C(=O)N2CCCC(C)C2)sc2ncnc(N3CCCCC3C)c12 (centres undefined) | 10 | 19 | 2 | 3 | i | -8 | 2 | 0
O=C(CSc1ccc2c(c1)OCCO2)Nc1cccnc1 | -7 | -4 | -2 | 0 | i | . | 3 | -4
C(=C\c1ccccc1)/CSc1nnc(-c2cccnc2)o1 | 2 | . | 0 | 2 | i | . | 3 | 0
CCc1nnc(NC(=O)CN2C(=O)c3ccccc3S2(=O)=O)s1 | 3 | -20 | -6 | -5 | i | -16 | 0 | 0
O=C1CC(Sc2nnc(-c3ccccc3)o2)C(=O)N1c1ccccc1 (centres undefined) | 10 | -48 | 3 | -6 | i | -18 | -4 | 5
CC(OC(=O)/C=C/c1cccs1)C(=O)Nc1ccc(S(N)(=O)=O)cc1 (centres undefined) | 18 | 3 | -2 | -2 | i | . | 1 | 2
CNC(=O)CSc1nc2nc(C)cc(C)n2n1 | 2 | . | -8 | -10 | i | -16 | -1 | 4
Cc1ccc(OCC(=O)OCc2nc3scc(-c4ccccc4)c3c(=O)[nH]2)cc1C | . | -185 | . | 2 | i | -15 | 4 | 0
Cc1ccc(C(=O)Nc2ccccc2-c2ccccc2)cc1S(=O)(=O)Nc1ccccc1 | . | -5 | . | . | . | -19 | 0 | -11
O=C(O)CSc1nnc(-c2ccncc2)n1C1CCCCC1 | -1 | -22 | -3 | 33 | i | 0 | -3 | 3
COc1ccc(NC(=O)c2cc(S(=O)(=O)Nc3ccc(OC)cc3)cs2)cc1 | -5 | 3 | -5 | 8 | i | 7 | 3 | -10
CCCOC(=O)Nc1ccc(S(=O)(=O)Nn2cnnc2)cc1 | 9 | -69 | -15 | -5 | i | -4 | 7 | 10
COC(=O)C1=C(CSc2nncn2C)NC(=O)NC1c1ccc(F)cc1 (centres undefined) | -5 | -66 | -1 | 2 | i | -10 | 1 | 1
